Yeast UUG start – modulators of start codon recognition fidelity in yeast | S. cerevisiae UUG-firefly luciferase reporter, luminescence/redox ratio | activity score, % at 18.7 µM | hit rate 0.13% among 350,000 | AID 602363;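 active = replicate mean at a twofold rise or more, about +100% in these data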;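 also: firefly luciferase made from a UUG start codon reports start codon fidelity; reporter light over untreated wells divided by growth signal over untreated wells; some hits fall short of that in this replicate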
* = called active by the depositor; & = joins results of further samples.

Yeast UUG start	smiles
-7.5	CN1C(=O)c2cc(NC(=O)c3cccc(F)c3)ccc2OC[C@H]2O[C@H](CC(=O)NCc3ccccc3Cl)CC[C@@H]21
-2.7	C[C@H]1CN([C@@H](C)CO)C(=O)c2cc(NC(=O)Nc3ccccc3)ccc2O[C@@H]1CN(C)Cc1ccc2c(c1)OCO2
-1.0	C[C@H]1CN([C@@H](C)CO)C(=O)c2cc(NC(=O)NC3CCCCC3)ccc2O[C@H]1CN(C)Cc1ccc(C(F)(F)F)cc1
-5.5	Cc1ccc(S(=O)(=O)N2CCN(C(=O)COC(=O)CSc3cc(C)ccc3C)CC2)c(C)c1
6.9	C[C@@H]1CN([C@@H](C)CO)C(=O)c2cccc(NS(=O)(=O)c3cccs3)c2O[C@H]1CN(C)S(=O)(=O)c1cn(C)cn1
57.4	O=C(c1cccnc1)N1C[C@H]2[C@@H](c3ccccc31)[C@H](CO)N2C(=O)Nc1ccc(F)cc1
23.0	CCCNC(=O)C[C@@H]1C[C@@H]2c3cc(NC(=O)C4CCC4)ccc3O[C@@H]2[C@@H](CO)O1
-4.4	CC(=O)N1[C@H](CO)[C@@H](c2ccccc2)[C@@H]1CN(C)C(=O)C1CCC1
24.9	CCCC#Cc1ccc([C@H]2[C@@H](CO)N3CCCCN(C(=O)NC4CCCC4)C[C@H]23)cc1
-7.1	CCCNC(=O)N1C[C@@H]2[C@H](c3ccccc31)[C@@H](CO)N2C(=O)CN1CCOCC1
-20.3	O=C(c1ccccc1F)N1CC[C@@H]2[C@H]1c1cc(-c3cccc(F)c3)ccc1N[C@@H]2CO
22.6	N#Cc1cccc(-c2ccc([C@H]3[C@@H](CO)N4CCCCN(C(=O)Nc5ccc(F)cc5)C[C@H]34)cc2)c1
8.4	CO[C@@H]1CN(C)C(=O)c2cc(NC(=O)Nc3ccc(Cl)cc3)ccc2OC[C@H](C)NC[C@@H]1C
-17.8	Cc1ccc(S(=O)(=O)N(C)C[C@H]2Oc3ccc(NC(=O)C4CC4)cc3C(=O)N([C@@H](C)CO)C[C@H]2C)cc1
13.6	Cc1noc(C)c1S(=O)(=O)N(C)C[C@H]1Oc2c(NC(=O)C3CCCCC3)cccc2C(=O)N([C@H](C)CO)C[C@H]1C
-4.0	C[C@H]1CN([C@@H](C)CO)C(=O)CCCn2nncc2CO[C@H]1CN(C)C(=O)CCCN(C)C
2.6	CO[C@@H]1CN(C)C(=O)c2ccc(NC(=O)C3CCCC3)cc2OC[C@@H](C)N(CC2CC2)C[C@H]1C
-12.3	O=C(C1CC1)N1C[C@@H]2[C@H](c3ccccc31)[C@@H](CO)N2C(=O)c1ccccn1
-3.5	CC(=O)NC[C@@H]1[C@@H](c2ccc(-c3ccccc3F)cc2)[C@H](CO)N1C(C)=O
0.6	CCNC(=O)Nc1ccc2c(c1)C(=O)N(C)[C@@H]1CC[C@@H](CC(=O)NC3CCCCC3)O[C@@H]1CO2

Carrying on.
Yeast UUG start	smiles
15.6	C[C@H](CO)N1C[C@H](C)[C@@H](CN(C)C(=O)NC2CCCCC2)Oc2ccc(NS(=O)(=O)c3ccc(Cl)cc3)cc2C1=O
-8.4	COCC(=O)Nc1ccc2c(c1)[C@H]1C[C@H](CC(=O)NCc3ccncc3)O[C@@H](CO)[C@H]1O2
9.6	COc1ccc(C#Cc2ccc([C@@H]3[C@@H](CO)N4CCCCN(C(=O)c5ccncc5)C[C@H]34)cc2)cc1
22.9	CCN(C[C@H]1N[C@@H](CO)[C@@H]1c1ccc(C2=CCCC2)cc1)C(=O)c1ccncc1
-0.6	COCC(=O)N1[C@@H](CO)[C@@H]2c3ccccc3N(C(=O)c3ccccc3F)C[C@@H]21
-8.2	CC(C)NC(=O)N(C)C[C@H]1Oc2ccc(NS(C)(=O)=O)cc2CC(=O)N([C@H](C)CO)C[C@H]1C
-3.7&-9.4	C[C@H](CO)N1C[C@H](C)[C@@H](CN(C)C(=O)NC2CCCCC2)Oc2c(NS(C)(=O)=O)cccc2C1=O
23.4	O=C(C[C@@H]1CC[C@H]2[C@@H](COC[C@@H](O)CN2S(=O)(=O)c2ccc(Cl)cc2)O1)NCC1CCCCC1
-2.5	CCCNC(=O)C[C@H]1C[C@H]2c3cc(NC(=O)C4CCC4)ccc3O[C@H]2[C@H](CO)O1
16.3	C[C@H]1CN([C@@H](C)CO)C(=O)c2c(c3ccccc3n2C)-c2ccccc2CO[C@@H]1CN(C)S(=O)(=O)c1ccc(F)cc1
17.4	Cc1ccc(S(=O)(=O)N2C[C@@H](O)COC[C@H]3O[C@@H](CC(=O)NCC4CCCCC4)CC[C@@H]32)cc1
5.1	CO[C@@H]1CN(C)C(=O)c2cc(NC(C)=O)ccc2OC[C@H](C)N(Cc2ccc(F)cc2)C[C@H]1C
-7.7	Cc1cc(C(=O)Nc2cccc3c2O[C@@H](CN(C)Cc2ccc(C(=O)O)cc2)[C@@H](C)CN([C@H](C)CO)C3=O)n(C)n1
12.2	COCC(=O)N1[C@H](CN(C)C(=O)c2ccccc2)[C@@H](c2ccccc2)[C@@H]1CO
-11.0	CO[C@H]1CN(C)C(=O)c2ccc(NC(C)=O)cc2OC[C@@H](C)N(Cc2cc(F)ccc2F)C[C@@H]1C
-4.1	C[C@H]1CN([C@@H](C)CO)C(=O)Cc2cc(N(C)C)ccc2O[C@@H]1CN(C)C(=O)Nc1ccc(F)cc1
-14.2	CCCC(=O)Nc1ccc2c(c1)OC[C@H](C)N(C(=O)c1cnccn1)C[C@@H](C)[C@@H](OC)CN(C)C2=O
7.7	COCC(=O)Nc1ccc2c(c1)C(=O)N(C)[C@@H]1CC[C@H](CC(=O)NC3Cc4ccccc4C3)O[C@H]1CO2
4.2	Cc1ccc(S(=O)(=O)Nc2ccc3c(c2)CC(=O)N([C@H](C)CO)C[C@@H](C)[C@H](CN(C)Cc2ccc4c(c2)OCO4)O3)cc1
-2.0	O=C(c1cccnc1)N1C[C@@H]2[C@H](c3ccccc31)[C@H](CO)N2C(=O)Nc1ccc(F)cc1

More entries
Yeast UUG start	smiles
-5.4	C[C@H]1CN([C@@H](C)CO)C(=O)c2cc(NC(=O)Cn3cnnn3)ccc2O[C@H]1CN(C)C
-3.5	CCC(=O)N1[C@@H]2CN(S(=O)(=O)c3ccccc3)c3ccccc3[C@@H]2[C@@H]1CO
-4.1	C[C@@H]1CN([C@H](C)CO)C(=O)c2cccc(NC(=O)c3ccncc3)c2O[C@H]1CN(C)S(=O)(=O)c1ccc(Cl)cc1
0.3	COCC(=O)N1CC[C@H]2[C@H](CO)Nc3ccc(-c4ccc(C#N)cc4)cc3[C@H]21
-10.4	OC[C@H]1Nc2ccc(C#Cc3ccc(F)cc3)cc2[C@@H]2[C@H]1CCN2Cc1ccc2c(c1)OCO2
-4.9	CN1c2ccc(-c3cccc(F)c3)cc2[C@@H]2[C@@H](CCN2C(=O)c2ccncc2)[C@H]1CO
5.4	Cc1noc(C)c1S(=O)(=O)Nc1ccc2c(c1)CC(=O)N([C@@H](C)CO)C[C@H](C)[C@H](CN(C)C)O2
1.8	C/C=C/c1ccc([C@H]2[C@@H](CNC(=O)CC)N(C(=O)CC)[C@H]2CO)cc1
-7.9	C[C@@H]1CN([C@@H](C)CO)C(=O)c2cc(NC(=O)Cc3ccccc3)ccc2O[C@@H]1CN(C)S(=O)(=O)c1cn(C)cn1
-14.1	OC[C@H]1[C@@H](c2ccc(/C=C/c3ccccc3)cc2)[C@@H]2CN(Cc3ccncc3)CCCCN12
-11.0	C[C@@H]1CN([C@@H](C)CO)C(=O)c2cccc(NC(=O)c3ccncc3)c2O[C@@H]1CN(C)C(=O)Nc1ccc(F)cc1
17.8	CCCC#Cc1ccc([C@H]2[C@H]3CN(Cc4ccncc4)CCCCN3[C@H]2CO)cc1
42.1	Cc1ccc(S(=O)(=O)N(C)C[C@H]2Oc3ccc(NC(=O)CCCN(C)C)cc3C(=O)N([C@@H](C)CO)C[C@@H]2C)cc1
8.9	Cc1ccccc1-c1ccc([C@H]2[C@@H](CO)N3CCCCN(C(=O)Nc4cccc(F)c4)C[C@H]23)cc1
-40.1	OC[C@@H]1[C@@H](c2ccc(-c3cccnc3)cc2)[C@@H]2CN(Cc3ccccn3)CCCCN12
16.7	O=C(C1CCOCC1)N1C[C@@H]2[C@H](c3ccccc31)[C@H](CO)N2C(=O)Nc1cccc(F)c1
1.4	CO[C@@H]1CN(C)C(=O)c2cc(NC(=O)Nc3cccc(F)c3)ccc2OC[C@H](C)NC[C@H]1C
-8.7	CCC(=O)Nc1ccc2c(c1)C(=O)N(C)C[C@H](OC)[C@H](C)CN(C(=O)C1CCC1)[C@H](C)CO2
26.9	CCC(=O)N1C[C@H](C)[C@@H](OC)CN(C)C(=O)c2ccc(NC(=O)Nc3ccccc3)cc2OC[C@@H]1C
42.4	CN(C)C(=O)c1ccc(-c2ccc([C@H]3[C@H](CO)N4CCCCN(CC5CC5)C[C@@H]34)cc2)cc1

Sorted by length of the SMILES (lowest first): 3 of the compounds above
Yeast UUG start	smiles
1.4	CO[C@@H]1CN(C)C(=O)c2cc(NC(=O)Nc3cccc(F)c3)ccc2OC[C@H](C)NC[C@H]1C
42.4	CN(C)C(=O)c1ccc(-c2ccc([C@H]3[C@H](CO)N4CCCCN(CC5CC5)C[C@@H]34)cc2)cc1
-8.7	CCC(=O)Nc1ccc2c(c1)C(=O)N(C)C[C@H](OC)[C@H](C)CN(C(=O)C1CCC1)[C@H](C)CO2

Returning to the listing; the seven compounds before the break are reprinted first.
Yeast UUG start	smiles
8.9	Cc1ccccc1-c1ccc([C@H]2[C@@H](CO)N3CCCCN(C(=O)Nc4cccc(F)c4)C[C@H]23)cc1
-40.1	OC[C@@H]1[C@@H](c2ccc(-c3cccnc3)cc2)[C@@H]2CN(Cc3ccccn3)CCCCN12
16.7	O=C(C1CCOCC1)N1C[C@@H]2[C@H](c3ccccc31)[C@H](CO)N2C(=O)Nc1cccc(F)c1
1.4	CO[C@@H]1CN(C)C(=O)c2cc(NC(=O)Nc3cccc(F)c3)ccc2OC[C@H](C)NC[C@H]1C
-8.7	CCC(=O)Nc1ccc2c(c1)C(=O)N(C)C[C@H](OC)[C@H](C)CN(C(=O)C1CCC1)[C@H](C)CO2
26.9	CCC(=O)N1C[C@H](C)[C@@H](OC)CN(C)C(=O)c2ccc(NC(=O)Nc3ccccc3)cc2OC[C@@H]1C
42.4	CN(C)C(=O)c1ccc(-c2ccc([C@H]3[C@H](CO)N4CCCCN(CC5CC5)C[C@@H]34)cc2)cc1
-13.9	C[C@@H]1CN([C@@H](C)CO)C(=O)c2cc(NC(=O)c3ccncc3)ccc2O[C@H]1CN(C)C(=O)Nc1ccccc1
11.7	CCC(=O)N1C[C@H]2[C@@H](c3ccccc31)[C@H](CO)N2C(=O)CC1CC1
1.3	COc1ccc(CN(C)C[C@@H]2Oc3ccc(NC(=O)Nc4ccc(F)cc4)cc3CC(=O)N([C@@H](C)CO)C[C@@H]2C)cc1
-4.4	C/C=C/c1ccc([C@H]2[C@@H](CO)N3CCCCN(C(=O)Nc4ccc(F)cc4)C[C@H]23)cc1
5.5	C[C@@H]1CN([C@@H](C)CO)C(=O)Cc2cc(NC(=O)NC3CCCCC3)ccc2O[C@@H]1CN(C)S(=O)(=O)c1ccccc1
1.8	CN1CCCCN2[C@H](C1)[C@H](c1ccc(C#Cc3ccccc3F)cc1)[C@@H]2CO
0.0	CO[C@@H]1CN(C)C(=O)c2cc(NC(=O)c3cc(C)on3)ccc2OC[C@H](C)N(C(=O)C2CC2)C[C@@H]1C
59.6	CO[C@H]1CN(C)C(=O)c2ccc(NC(C)=O)cc2OC[C@H](C)N(CCc2ccccc2)C[C@H]1C
-5.1	COc1ccc(NC(=O)Nc2ccc3c(c2)C(=O)N([C@H](C)CO)C[C@@H](C)[C@H](CN(C)Cc2ccc(Cl)c(Cl)c2)O3)cc1
-6.2	CN1c2ccc(Br)cc2[C@H]2[C@H](CCN2C(=O)Cc2cccnc2)[C@@H]1CO
-1.1	O=C(C[C@H]1CC[C@@H]2[C@H](COC[C@@H](O)CN2S(=O)(=O)c2ccc(F)cc2)O1)N[C@@H]1CCN(Cc2ccccc2)C1
-2.3	CN1c2ccc(-c3ccccc3)cc2[C@@H]2[C@@H](CCN2S(=O)(=O)c2ccccc2F)[C@@H]1CO
2.0	COc1ccc(-c2ccc3c(c2)[C@H]2[C@H](CCN2C(=O)c2ccc4c(c2)OCO4)[C@@H](CO)N3)cc1
-16.8	OC[C@H]1[C@H](c2ccc(-c3cccnc3)cc2)[C@@H]2CN(CC3CCOCC3)CCCCN12
0.2	COCC(=O)N(C)C[C@H]1[C@H](c2ccc(-c3cccnc3)cc2)[C@@H](CO)N1C(C)=O
9.7	O=S(=O)(Cc1ccccc1)N1CCCCN2[C@H](C1)[C@@H](c1ccc(C#Cc3ccccc3)cc1)[C@@H]2CO
5.8	COCC#Cc1ccc([C@H]2[C@H]3CN(S(=O)(=O)c4ccccc4F)CCCCN3[C@H]2CO)cc1
2.3	C[C@@H]1CN([C@@H](C)CO)C(=O)c2cc(NS(=O)(=O)c3cccs3)ccc2O[C@H]1CN(C)S(=O)(=O)c1ccc(Cl)cc1
0.6	C[C@H]1CN([C@@H](C)CO)C(=O)c2cc(NC(=O)CCC(F)(F)F)ccc2O[C@@H]1CN(C)Cc1ccc(C(F)(F)F)cc1
6.7	CO[C@H]1CN(C)C(=O)c2cc(NC(=O)c3ccccc3)ccc2OC[C@H](C)N(C)C[C@H]1C

Single values from above.
CN1CCCCN2[C@H](C1)[C@H](c1ccc(C#Cc3ccccc3F)cc1)[C@@H]2CO @ Yeast UUG start: 1.8
C/C=C/c1ccc([C@H]2[C@@H](CO)N3CCCCN(C(=O)Nc4ccc(F)cc4)C[C@H]23)cc1 @ Yeast UUG start: -4.4

Continuation:
Yeast UUG start	smiles
3.2	CN(C)C(=O)c1ccc(-c2ccc([C@@H]3[C@H]4CN(C(=O)C5CCCC5)CCCCN4[C@H]3CO)cc2)cc1
2.4	C[C@H]1CN([C@@H](C)CO)C(=O)c2cccc(NC(=O)Nc3ccc(C(F)(F)F)cc3)c2O[C@H]1CN(C)Cc1ccncc1
14.7	COCC(=O)N1CC[C@H]2[C@@H]1c1cc(-c3ccc(F)cc3)ccc1N(C)[C@H]2CO
27.8	COc1ccc(S(=O)(=O)Nc2cccc3c2O[C@@H](CN(C)S(=O)(=O)c2c(C)noc2C)[C@H](C)CN([C@@H](C)CO)C3=O)cc1
-6.5	CC(C)NC(=O)Nc1ccc2c(c1)C(=O)N([C@H](C)CO)C[C@@H](C)[C@@H](CN(C)Cc1ccncc1)O2

Not all compounds are listed (hit frequency here may not be typical).
